Screening data deposited in PubChem by several laboratories.
HIV Env fusion: blocks HIV Env-driven cell-cell fusion; HeLa-JRFL Env/CEM21 cell fusion, luciferase; AID 651610; inhibition, % at 12.3 µM; hit rate 1.1% among 360,000;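 active means mean replicate inhibition score of at least 50 and every replicate individually at or above 50; inconclusive means only one of the two criteria met; inactive means mean below 50 and not all replicates reaching 50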;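 further: 0% = plate neutral controls and 100% = maraviroc near 300 nM; one replicate is shown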
UUG fidelity: modulators of start codon recognition fidelity in yeast; S. cerevisiae UUG-firefly luciferase reporter, luminescence/redox ratio; activity score, % at 18.7 µM; hit rate 0.13% among 350,000;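 active means replicate mean at a twofold rise or more, about +100% in these data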;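 further: firefly luciferase made from a UUG start codon reports start codon fidelity; reporter light over untreated wells divided by growth signal over untreated wells; some hits fall short of that in this replicate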
eIF4H inh: inhibitors of RNA binding by human eIF4H. eIF4H fluorescence polarization binding assay. inhibition, % at 35 µM. hit rate 0.94% among 290,000. AID 2012;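 active means 50% or more with normal probe brightness, or confirmed in later tests; inconclusive means above 50% with abnormal brightness, or retests that disagree; inactive means below 50% or failed in later tests; about a fifth of its hits are not listed in these tables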;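 further: calls also rest on retests at 20 µM and on dose response follow-up; 0% = protein and probe with vehicle and 100% = probe without protein; strong numbers were not always called active; many hits fall short of the cut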
MT1-MMP act inh: blocks activation of human MT1-MMP; P50281; HT1080 RFP-PRO-GFP cells, GFP/RFP ratio fluorescence, overnight; percent of plate control window, DMSO zero; GFP/RFP ratio change, % at 20 µM; hit rate 0.061% among 360,000;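 active means GFP/RFP ratio change of at least 30% with cell ATP level not reduced by more than half and red fluorescence within 50% of control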; further: strong numbers were not always called active
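Assay system: RFP-PRO-GFP reporter HT1080 cells; read-out basis: GFP/RFP fluorescence ratio; benchmarks: DMSO wells and RFP-L50D-GFP cells; doses: 20 µM single dose, 1% DMSO; schedule: overnight cell settling, then overnight compound exposure, 37 °C, 5% CO2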
CSC inhib: blocks cancer stem cells; hit rate 1.1% among 300,000; inhibition, % at 7.5 µM; cancer stem cell-like cells viability, luminescence;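 active means mean at 75% or more and at least half the replicates too; inconclusive means mean and replicates disagree; tested in HMLE shEcad cells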;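 further: 0% = median of negative and 100% = median of positive control wells; the first replicate is given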
PABP FP inh: blocks human PABP binding to poly(A) RNA; P11940; fluorescence polarization; inhibition, % at 35 µM; hit rate 1% among 290,000;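 active means 50% or more with normal probe brightness, or confirmed in later tests; inconclusive means above 50% with abnormal brightness, or retests that disagree; inactive means below 50% or failed in later tests; about a fifth of its hits are not listed in these tables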;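 further: calls also rest on retests at 20 µM and on dose response follow-up; controls were probe without protein and protein plus probe with vehicle; some compounds called inactive have numbers as strong as hits; many hits fall short of the cut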
Target sequence (P11940 whole entry, looked up): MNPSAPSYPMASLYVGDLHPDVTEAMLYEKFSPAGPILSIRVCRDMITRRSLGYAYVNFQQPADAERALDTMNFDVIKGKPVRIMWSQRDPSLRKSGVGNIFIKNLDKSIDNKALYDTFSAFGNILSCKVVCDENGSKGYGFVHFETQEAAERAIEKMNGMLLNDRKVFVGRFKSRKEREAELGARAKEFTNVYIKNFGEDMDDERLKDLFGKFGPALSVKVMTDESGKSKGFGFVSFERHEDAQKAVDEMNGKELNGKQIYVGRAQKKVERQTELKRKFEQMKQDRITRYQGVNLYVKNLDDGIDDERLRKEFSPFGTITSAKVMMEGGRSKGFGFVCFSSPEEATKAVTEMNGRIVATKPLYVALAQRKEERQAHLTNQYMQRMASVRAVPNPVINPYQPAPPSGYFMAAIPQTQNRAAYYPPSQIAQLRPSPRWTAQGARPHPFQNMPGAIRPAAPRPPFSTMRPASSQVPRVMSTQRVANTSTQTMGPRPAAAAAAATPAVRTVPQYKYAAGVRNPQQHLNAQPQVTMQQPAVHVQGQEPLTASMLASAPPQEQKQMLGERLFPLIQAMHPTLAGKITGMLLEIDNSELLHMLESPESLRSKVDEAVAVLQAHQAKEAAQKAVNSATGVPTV
Rce1 inhib: inhibitors of yeast Ras-converting enzyme. yeast membranes, quenched prenylated peptide cleavage fluorescence. calls only. hit rate 0.27% among 290,000. AID 2563. Q03530;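 active means fall in fluorescence gain of 50% or more versus controls, with final raw signal at or below 3038400; inconclusive means same 50% fall but final raw signal above 3038400; inactive means fall in fluorescence gain under 50%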;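 further: plate controls were neutral control wells for no effect and wells lacking membranes for full effect; tested at 10 µM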
MT1-MMP act inh RFP: also measured in MT1-MMP act inh; calls as there; RFP signal change, %; measured here: RFP expression control read;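 0 = vehicle wells; hits needed this value within 50% of zero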
* hit, by the source's call; i = inactive; ? = inconclusive; . = not tested or not shown; & = joins results of further samples; [ ] = another dose, or the depositor's remark. Some of the compounds tested. The share of hits here may be higher or lower than overall.

SMILES	HIV Env fusion	UUG fidelity	eIF4H inh	MT1-MMP act inh	MT1-MMP act inh RFP	CSC inhib	PABP FP inh	Rce1 inhib
O=C(CSc1nc2c(sc3ccccc32)c(=O)n1CCCN1CCCC1)NCC1CCCO1 (stereo not drawn)	-78	.	5	-4	-3	-3	-1	i
O=C(COC(=O)c1sc2cc(Cl)ccc2c1Cl)Nc1ncc(Cl)cc1Cl	12	.	-8	.	.	-2	-4	i
C[C@H](CO)N1C[C@H](C)[C@@H](CN(C)Cc2ccncc2)Oc2c(cccc2N(C)C)C1=O	10[16.7 µM]	11&0	.	1	3	-15	.	.
Cc1cc(C)n2c(SCC(=O)N3CCN(S(=O)(=O)c4ccc(Cl)cc4)CC3)nnc2n1	.	-9	-9	-7	2	17	-7	i
CN(CC(=O)Nc1ccc(S(=O)(=O)N2CCCC2)cc1)Cc1ccc(Cl)cc1Cl	14	47	-6	-5	-6	11	-6	i
O=C(c1ccc2nc(-c3ccco3)c(-c3ccco3)nc2c1)N1CCN(c2ccccc2)CC1	-39	5	94*	2	-9	.	53*	i
CCOC(=O)c1[nH]cnc1C(=O)Nc1ccc([N+](=O)[O-])cc1	11	-21	3	-1	-5	10	2	i
Cc1ccccc1OCc1nc(-c2ccccc2)no1	-101	-11	6	-1	-1	-5	-1	i
CCn1c(O)c(N=NC(=O)CNC(=O)c2ccccc2F)c2ccccc21	10	-7	0	-1	1	4	5	i
CCc1cccc(NC(=O)CSCc2nc3sc(C)c(C)c3c(=O)[nH]2)c1	-8	-8	.	0	1	-8	.	.
O=C(CNC(=O)c1ccccc1Br)N/N=C/c1cccnc1	5	-13	-16	0	2	-6	-3	i
COc1ccc(Cl)cc1NC(=S)NCCc1ccc(F)cc1	.	-24	1	3	1	-2	-10	i
Cc1cc(C(=O)N/N=C/c2c(C)[nH]c3ccccc23)n[nH]1	-8	-7	-8	2	3	-6	7	i
CCOc1ccc(N=Nc2c(N)[nH][nH]c2=O)cc1	-20	.	-3	10	3	2	2	i
CCC(=O)Nc1cccc(C2=NOC3(C2)C[C@@H](C(N)=O)N(C(=O)C(c2ccccc2)c2ccccc2)C3)c1 (stereo partly drawn)	-73	-5	-4	-2	-2	10	6	i
CCOC(=O)CSc1n[nH]c(NC(=O)NC(C)C)n1	2	.	-5	2	5	-6	-3	i
COc1cccc(NC(=O)CCCCCN2C(=O)[C@@H]3Cc4ccccc4CN3C2=O)c1	8	.	0	3	-4	-14	-2	i
COCC(=O)N1C[C@H]2CON(C)[C@H]2C[C@H]1c1ccc(N2CCCCC2)cc1	-9	8	.	4	1	.	.	.
CCOc1ccc(S(=O)(=O)N(C)c2ccc(OCC(=O)Nc3nc(-c4cc(OC)ccc4OC)cs3)cc2)cc1	.	-2	13	-5	-6	1	-10	i
O=C(CN1CCOCC1)N/N=C/c1ccccc1	-5	-13	-1	0	4	-5	-7	i
COCC(=O)Nc1nnc(SCC(=O)NCc2cccs2)s1	-96	-6	2	1	9	.	-4	i
O=S1(=O)N=C(c2ccccc2)C=C(c2ccccc2)N1	-7	-12	.	2	3	.	.	.
C=CCc1ccccc1OCC(O)CN1CCN(Cc2ccc3c(c2)OCO3)CC1 (stereo not drawn)	8&-2	15	-5&-9	7&2	4&2	24&11	15&-10	i
CCNC(=S)N1CCN(C(c2ccccc2)c2ccccc2)CC1	.	-23	7	-10	-3	.	10	i
CCCCc1ccc(NC(=S)NCc2ccccc2OC)cc1	17	.	-11	0	0	-7	-13	i

5 compounds out of the list, ordered by molecular weight, smallest number first.
SMILES	HIV Env fusion	UUG fidelity	eIF4H inh	MT1-MMP act inh	MT1-MMP act inh RFP	CSC inhib	PABP FP inh	Rce1 inhib
O=C(CN1CCOCC1)N/N=C/c1ccccc1	-5	-13	-1	0	4	-5	-7	i
Cc1ccccc1OCc1nc(-c2ccccc2)no1	-101	-11	6	-1	-1	-5	-1	i
Cc1cc(C(=O)N/N=C/c2c(C)[nH]c3ccccc23)n[nH]1	-8	-7	-8	2	3	-6	7	i
CCNC(=S)N1CCN(C(c2ccccc2)c2ccccc2)CC1	.	-23	7	-10	-3	.	10	i
CCC(=O)Nc1cccc(C2=NOC3(C2)C[C@@H](C(N)=O)N(C(=O)C(c2ccccc2)c2ccccc2)C3)c1 (stereo partly drawn)	-73	-5	-4	-2	-2	10	6	i

More entries follow.
SMILES	HIV Env fusion	UUG fidelity	eIF4H inh	MT1-MMP act inh	MT1-MMP act inh RFP	CSC inhib	PABP FP inh	Rce1 inhib
COc1ccc(S(=O)(=O)N2CCN(c3cnccn3)CC2)cc1OC	-285	-9	.	-3	4	-10	.	.
COc1cc(C(=O)N(C)CC2CCN(CCc3cccc(C(F)(F)F)c3)CC2)ccc1C	11	-7	-6	4	-7	4	-5	i
CCCNC(=O)C1(C)CCN1C(=O)Cc1ccc(-c2ccccc2)cc1 (stereo not drawn)	7	-31	.	1	-11	.	.	.
Cc1cccc(NS(=O)(=O)c2ccc(C)c(C(N)=O)c2)c1	.	-13	-5	-1	-8	-6	-8	i
Cc1[nH]n(-c2ccc([N+](=O)[O-])cc2)c(=O)c1C=NCCN1CCN(C(=O)C(C)C)CC1	10	.	5	-3	-5	?	-23	i
O=C(NCc1ccccc1Cl)C(=O)NCC(c1ccco1)N1CCOCC1 (stereo not drawn)	12	-7	-6	-1	2	-17	-9	i
O=C(NCC1CCCN(Cc2ccc3c(c2)OCCO3)C1)c1ccc2c(c1)OCO2 (stereo not drawn)	16	14	-3	-3	1	-7	-4	i
CCN(CC)C(=O)CSc1nnc(COc2ccc(OC)cc2)n1N	0	.	-1	0	0	-1	5	i
O=C(c1ccc2nc[nH]c2c1)N1CCN(S(=O)(=O)c2cccc(F)c2)CC1	-8	-10	.	-2	0	-3	.	i
O=S(=O)(Cc1ccccc1)N1CCn2c(nc3ccccc32)C1	3	-5	3	4	2	7	0	i
Cc1cccc(NC(=O)Cc2ccc(Br)cc2)n1	-17	-19	-14	-4	-2	-10	-10	i
CCOC(=O)c1nnn(CC(=O)Nc2cc(Cl)ccc2C)c1C(=O)OCC	2	-3	-2	2	5	-9	7	i
CSc1nc(N2CCN(c3ccccc3Cl)CC2)c2ccccc2n1	0	-16	-2	1	1	26	4	i
CNS(=O)(=O)c1cccc(C(=O)OCCCC(=O)c2ccccc2)c1	.	-11	.	-3	-18	-5	.	.
O=S(=O)(c1ccc(-c2ccccc2)cc1)N1CCCC1	-6	.	10	-1	-1	-10	3	i
COc1cccc(-c2c3c([nH]c(=O)c2C#N)CCc2cc(OC)ccc2-3)c1	.	.	-5	.	.	-4	?	i
CCOC(=O)C(=Cc1cc(=O)c(OC)co1)C(=O)OCC	-246	.	0	-24	-39	.	20	i
NC(=O)C1CCCN(C(=O)c2ccc3oc(Cc4ccc(Cl)cc4)nc3c2)C1 (stereo not drawn)	4	-11	1	1	-1	31	2	i
O=C(Nc1ncc2c(n1)-c1ccccc1CC2)c1ccc(F)cc1	-137	-16	-14	0	-2	-5	-4	i
CCC1(C)Cc2c(sc3c2c2ncnn2c2nnc(SCC(=O)NCc4ccco4)n32)CO1 (stereo not drawn)	.	-19	10	7	0	3	25	i
COc1cccc(Nc2nc(N)c([N+](=O)[O-])c(NCc3ccccc3)n2)c1	46	-9	-4	-3	-17	37	-12	i
CN(C)S(=O)(=O)N1CCN(C(=O)N2CCCCCC2)CC1	2	-7	-3	3	2	-7	-2	i
COc1cc(C2N3CC4(C)CN2CC(C)(C3)C4)ccc1O (stereo not drawn)	-4	-4	-8	8	-9	-17	-4	i
O=C(O)c1ccccc1C(=O)NCC(O)c1ccccc1 (stereo not drawn)	10	.	-8	-1	1	6	0	i
CCC(=O)N/C=C/n1cnc2cc(C(F)(F)F)ccc21	-46	-13	2	12	7	-18	-7	i
The list continues:
SMILES	HIV Env fusion	UUG fidelity	eIF4H inh	MT1-MMP act inh	MT1-MMP act inh RFP	CSC inhib	PABP FP inh	Rce1 inhib
COc1ccc(C(=O)NC(=S)N2CCOCC2)cc1[N+](=O)[O-]	-4	-19	4	0	4	9	-7	i
COc1ccc(NC2=C(NCCO)C(=O)c3ccccc3C2=O)cc1	-10	.	3	4	4	-1	5	i
CCCC(=O)Nc1ccc(N2CCN(S(C)(=O)=O)CC2)cc1	24	.	2	4	5	-13	-1	i
Cc1ccc(-n2c(=O)[nH]cc(C(=O)Nc3ccc4c(c3)OCO4)c2=O)cc1C	7	-9	-8	2	6	-5	-1	i
COc1ccc(S(=O)(=O)N2CCN(CC(=O)NC(Cc3ccccc3)C(C)=O)CC2)cc1 (stereo not drawn)	-13	-8	.	0	0	-4	.	.
COc1ccccc1NCCC(=O)OCC(=O)Nc1ccccc1Cl	5	8	.	1	0	-7	.	.
CC[C@H](C)[C@H](NS(=O)(=O)c1ccc(C)cc1)C(=O)N1CCC(C(=O)N[C@@H](C)C(=O)O)CC1	.	-12	-1	0	1	-1	8	i
CCCN(CCC)CCCNS(=O)(=O)c1cc(Br)cc2c1N(C(C)=O)CC2	.	-11	0	-2	3	.	-8	i
CCN(CC)CCC(C)OC(=O)c1ccc(O)cc1O (stereo not drawn)	-8	-10	-3	1	4	-11	-4	i
CCCC(=O)N(C1CC(C)C(C#N)(C#N)C1(C#N)C#N)N(C)C (stereo not drawn)	-56	.	-2	-1	1	13	-6	i
Cc1ccccc1NC(=O)Cc1nc(CSc2nnc(C3CCCCC3)n2N)cs1	14	-9	-5	2	0	-12	4	i
O=C1COc2ccc(C(=O)COC(=O)c3cccnc3Cl)cc2N1	2	.	-4	0	1	5	-8	i
COc1ccc(Br)cc1CN1CCN(C(=O)c2cccc(OC)c2OC)CC1	.	-1	19	3	3	-6	39	i
COc1ccc(OCC(O)CN2CCCCCC2)cc1 (stereo not drawn)	-10	-14	0	2	1	14	8	i
CCOC(=O)C(=O)N=Nc1c(O)[nH]c2ccccc12	.	.	-12	-1	6	-8	-7	i

Reprinted at random: 3 records from the list.
SMILES	HIV Env fusion	UUG fidelity	eIF4H inh	MT1-MMP act inh	MT1-MMP act inh RFP	CSC inhib	PABP FP inh	Rce1 inhib
CC[C@H](C)[C@H](NS(=O)(=O)c1ccc(C)cc1)C(=O)N1CCC(C(=O)N[C@@H](C)C(=O)O)CC1	.	-12	-1	0	1	-1	8	i
COc1ccc(S(=O)(=O)N2CCN(CC(=O)NC(Cc3ccccc3)C(C)=O)CC2)cc1 (stereo not drawn)	-13	-8	.	0	0	-4	.	.
CCOC(=O)C(=O)N=Nc1c(O)[nH]c2ccccc12	.	.	-12	-1	6	-8	-7	i

Four of the compounds above, as comma-separated lines:
smiles,HIV Env fusion,UUG fidelity,eIF4H inh,MT1-MMP act inh,MT1-MMP act inh RFP,CSC inhib,PABP FP inh,Rce1 inhib
O=C(Nc1ncc2c(n1)-c1ccccc1CC2)c1ccc(F)cc1,-137,-16,-14,0,-2,-5,-4,i
CCC1(C)Cc2c(sc3c2c2ncnn2c2nnc(SCC(=O)NCc4ccco4)n32)CO1 (stereo not drawn),.,-19,10,7,0,3,25,i
COc1cccc(Nc2nc(N)c([N+](=O)[O-])c(NCc3ccccc3)n2)c1,46,-9,-4,-3,-17,37,-12,i
CN(C)S(=O)(=O)N1CCN(C(=O)N2CCCCCC2)CC1,2,-7,-3,3,2,-7,-2,i
